VACV mCherry inh: inhibitors of vaccinia virus infection (mCherry reporter signal); Vaccinia virus mCherry reporter infection, fluorescence; about a quarter of the inactives have no number; Potency, µM (titrated, usually from 36.5 µM), inactives show at the top dose activity change, negative = inhibition, actives largely listed as inhibitors; actives 0.63% (n = 310,000); AID 720579; active = well fitted inhibition curve with a large enough effect; inconclusive = small, poorly fitted or top-dose-only effect; inactive = no such curve, though single readings can be large or run the other way; tested in A549 cells; note: nearly all actives have a fitted effect of over 35% in size; inactives centre near -10
VACV Venus inh: inhibitors of vaccinia virus (Venus reporter); actives 0.46% (n = 330,000); Vaccinia virus Venus reporter expression, fluorescence; AID 720580; Potency, µM (highest dose often 36.5 µM), inactives show at the highest dose activity change, negative = inhibition, most hits filed as inhibitors; active means well fitted inhibition curve with a large enough effect; inconclusive means small, poorly fitted or top-dose-only effect; inactive means no such curve, though single readings can be large or run the other way; tested in A549 cells; note: nearly all actives have a fitted effect of over 30% in size; inactives centre near -10
The depositor's hits bear a star; i = inactive; ? = inconclusive; . = no result given; & = joins results of further samples; [ ] = remark or other dose. % is set by controls: 0 for no effect and ±100 for the full control effect; potency is the fitted concentration of half-maximal effect.

The first two records as a preview:
SMILES | VACV mCherry inh | VACV Venus inh
COc1ccc(CN2CCOCCOCCOCCOCCOCC2)cc1 | -6% | -13%
Cc1nc(C(F)(F)F)ccc1C(=O)N1CCC1(C)C(=O)Nc1ccc2c(c1)OCO2 (configuration not stated) | 25% | -6%

Main list, from the first entry:
SMILES | VACV mCherry inh | VACV Venus inh
COc1ccc(CN2CCOCCOCCOCCOCCOCC2)cc1 | -6% | -13%
Cc1nc(C(F)(F)F)ccc1C(=O)N1CCC1(C)C(=O)Nc1ccc2c(c1)OCO2 (configuration not stated) | 25% | -6%
Cc1ccc(C(=O)/C=C/c2cc(C#N)n(C)c2C)cc1 | -6% | -19%
CCc1nn(CCCC(=O)N2CCc3ccccc3C2)c(=O)c2cc3occc3n12 | . | -21%
CCCC[C@@H]1Cc2[nH][nH]c(=O)c2[C@H](c2ccc3ccccc3c2)O1 | -12% | 9%
COc1ccc(C(=O)Cn2c(NCCCO)nc3ccccc32)cc1 | -21% | -1%
CCOC(=O)c1[nH]c2ccc(C)cc2c1N=CN(CC)CC | -6% | 0%
C=CCc1ccc(OCc2ccc(C(=O)OC)o2)c(OC)c1 | i | -20%
CCOC(=O)C[C@H]1c2cc(C(F)(F)F)ccc2S(=O)(=O)N1Cc1ccccc1 | 0%&-7% | -11%&-21%
C#CCN(C[C@@H]1[C@@H](OC(=O)NCCCCCC)[C@@H](OC(=O)NCCCCCC)Cn2c(=O)ccc(=O)n21)S(=O)(=O)c1ccc(C)cc1 | ? | 5.6µM*
COc1ccc([N+](=O)[O-])cc1NC(=O)COC(=O)Cc1cc(OC)c(OC)c(OC)c1 | i | -9%
Cc1ccc(NC(=O)c2sc3nc(N4CCOCC4)c4c(c3c2N)CCCC4)cc1 | -12% | -14%
CCOC(=O)/C(=N\Nc1ccccc1[N+](=O)[O-])c1csc(N)n1 | -24% | ?
CN(C)S(=O)(=O)c1ccc(N2CCCC2)c(C(=O)Nc2ccccc2Br)c1 | 0% | -6%
Cn1c(=O)c2c(nc(NCCc3ccccc3)n2Cc2ccccc2)n(C)c1=O | ? | ?
Cc1cc(NS(=O)(=O)c2ccccc2)c(C)c(Cl)c1O | -16% | -4%
CCc1ccc2cc(C)cc(C)c2n1 | 12% | -9%
Cc1ccc(SCc2c(C(=O)N/N=C/c3cccs3)nnn2-c2nonc2N)cc1 | ? | -19%
COc1cnc(-c2cccc(C(F)(F)F)c2)nc1OC | -15% | 5%
CCCCCOC(=O)c1ccc(N2C(=O)C3C4C=CC(C4)C3C2=O)cc1 (configuration not stated) | -5% | -6%
CC(=O)c1sc(N/N=C\c2c(O)ccc3ccccc23)nc1C | ? | 25%
CCN(CC(=O)Nc1ccccc1C(F)(F)F)C(=O)c1ccccc1OCc1ccc(F)cc1 | -24% | -13%
CCCC(=O)Nc1cc(C)c(NC(=O)c2ccccn2)cn1 | -9% | 8%
CNc1cnc(-c2ccc(C(=O)N3CCOCC3)cc2)cn1 | i | -6%
CCOC(=O)N1CCc2c(sc3c2c(=O)n(-c2ccc(CC)cc2)c(=O)n3C)C1 | -20% | -7%
O=C(CSc1nnc(COc2ccccc2)n1-c1ccccc1)c1cccs1 | . | -25%
c1ccc2c(c1)OCC(c1nnc3n1-c1ccccc1SC3)O2 (configuration not stated) | -18% | -8%
COC(=O)C1=C(C)N(CC(C)C)C(=O)C1 | -7% | -2%
CN(C)/C=C/C(=O)c1ccc(Cl)c([N+](=O)[O-])c1 | -11% | -1%
CC(C)CSc1nnc2[nH]c(=O)cc(N)n12 | . | -15%
Cc1ccccc1Nc1ccc([N+](=O)[O-])cn1 | i | -12%
O=C(O)/C=C/c1cn(Cc2ccccc2)nc1-c1ccccc1 | -6% | -11%
Cc1cc(C(=O)COc2ccccc2[N+](=O)[O-])c(C)n1C1CC1 | ? | -17%
CCOC(CNC(=O)c1[nH]c(C(F)(F)F)nc1-c1ccccc1)OCC | 53%[activator] | 1%
Cc1ccc(-c2nc(S(=O)(=O)c3ccc(C)cc3)c(SCC(=O)c3ccccc3)o2)cc1 | -12% | -17%
CCN(CC)C(=O)c1[nH]cnc1C(=O)NCCCCCNC(=O)OC(C)(C)C | i | -20%
Cc1cc2nc(-c3ccc(OCc4ccccc4C)cc3)cc(C(F)(F)F)n2n1 | 9% | 8%
COc1ccc(CC2(CO)CCN(Cc3cc4ccccc4o3)CC2)cc1 | -18% | -13%
O=C(NCC1CCCO1)C(=O)N/N=C/c1c(F)cccc1Cl (configuration not stated) | -16% | 2%
COc1ccc(-c2cc(C3CCN(Cc4cccc(C(F)(F)F)c4)CC3)[nH]n2)cc1 | -28% | ?
CCCn1c(=N)c(C(=O)NCc2ccc3c(c2)OCO3)cc2c(=O)n3cccc(C)c3nc21 | -7% | -11%
CC(=O)c1ccc(-n2c(CCC(=O)O)ccc2-c2cccs2)cc1 | -1%&-1% | 9%&0%
CCCCn1c(-c2ccc(S(=O)(=O)N3CCOCC3)cc2)csc1=Nc1ccccc1 | ? | ?
OC(CNc1nc2ccccc2s1)c1ccccc1 (configuration not stated) | -6% | -11%
O=C(Nc1ccccc1C(=O)N/N=C/c1ccco1)c1ccc(F)cc1 | i | -19%
COCC(=O)/C=C1\Sc2ccccc2N1C | -25% | -2%
CCN(CC(=O)Nc1ccc(OC)cc1)C(=O)c1cc([N+](=O)[O-])ccc1N1CCOCC1 | -15% | -9%
Cn1cc(Cl)c(C(=O)Nc2cnn(Cc3ccc(F)cc3)c2)n1 | i | -13%
O=[N+]([O-])c1cc(-c2nnc(Nc3ccc(O)cc3)c3ccccc23)ccc1N1CCOCC1 | ? | -26%
CC(=O)c1cccc(NC(=O)Cn2c(-c3cncs3)nc3ccccc32)c1 | -3% | -7%
CCn1c(NCc2cc(Br)ccc2NS(=O)(=O)c2ccc(C)cc2)nc2ccccc21 | . | -24%
COc1ccc(C(=O)NNC(=O)c2ccccc2[N+](=O)[O-])cc1 | i | -9%
Cc1cccc(CN2C(=O)CN=C(c3ccccc3)c3ccccc32)c1 | -20% | -22%
O=C(c1cccc(C(F)(F)F)c1)C1CCCN(C(=O)CCn2cnnn2)C1 (configuration not stated) | i | -9%
COC(=O)C1=C(C)N(CCCC(=O)O)C(=O)NC1c1cccc2ccccc12 (configuration not stated) | i | -8%
c1csc(-c2nnc(N3CCOCC3)c3ccccc23)c1 | -23% | -17%
COc1ccc(-c2[nH]n(-c3ccc([N+](=O)[O-])cc3)c(=O)c2C=NCc2ccc(F)cc2)cc1 | i | 3%
CCOc1ccc(C2Nc3ccccc3-c3nnc(SCc4ccccc4)nc3O2)cc1OC (configuration not stated) | 2% | -9%
CC(C)CN1CCNC(=O)C1CC(=O)NCCc1cnn(-c2ccccc2)c1 (configuration not stated) | 0% | -4%
c1ccc(COc2ncnc3c2ncn3CCCNCc2ccccn2)cc1 | ? | -17%

Overlap with the part before: 4 compounds, then new ones.
SMILES | VACV mCherry inh | VACV Venus inh
COc1ccc(-c2[nH]n(-c3ccc([N+](=O)[O-])cc3)c(=O)c2C=NCc2ccc(F)cc2)cc1 | i | 3%
CCOc1ccc(C2Nc3ccccc3-c3nnc(SCc4ccccc4)nc3O2)cc1OC (configuration not stated) | 2% | -9%
CC(C)CN1CCNC(=O)C1CC(=O)NCCc1cnn(-c2ccccc2)c1 (configuration not stated) | 0% | -4%
c1ccc(COc2ncnc3c2ncn3CCCNCc2ccccn2)cc1 | ? | -17%
Cc1ccc(-n2c(C)cc(C(=O)NS(=O)(=O)c3ccc(C)cc3)c2C)cc1 | i | 2%
CCc1nc2ccc(C(=O)NCCOc3ccc(OC)cc3)cn2c1N(CC)Cc1cccc(Br)c1 | -30% | ?
COc1ccc(CNC(=O)N2[C@H]3CC[C@@H]2C=C(c2ccc(F)cc2OCc2ccccc2)C3)cc1OC | ? | -24%
COC(=O)C1=C(C)NC2=C(C(=O)CC(C)(C)C2)C1c1cn(Cc2ccc(Br)cc2)nc1-c1ccccc1 (configuration not stated) | ? | -23%
CC(NC(=O)C1CCN(S(=O)(=O)c2cc([N+](=O)[O-])ccc2Cl)CC1)c1ccccc1 (configuration not stated) | -21% | -27%
Cc1ccc(C(=O)c2c3ccc([N+](=O)[O-])cc3[n+]([O-])n2CCC(N)=O)cc1 | ? | ?
C=C(C)c1cccc(C(C)(C)NC(=O)NCC2CCCO2)c1 (configuration not stated) | . | -10%
O=C1c2ccncc2C(=O)N1c1cccc(Cl)c1 | i | 7%
CCN(CC)C(=O)Cn1cc(/C=C2\C(=O)NC(=O)N(c3ccccc3F)C2=O)c2ccccc21 | -3% | -15%
O=C(Cn1ncc2ccsc2c1=O)N1CCN(c2ccccc2)CC1 | -13% | 6%
CCC(C)[C@H](NC(=O)N1CCCCC1)C(=O)OC (some centres not stated) | i | -5%
Cc1ccc(-n2nc(CO)c(C(=O)NCc3cccnc3)n2)cc1C | -27% | -15%
COc1ccc(C(O)c2ncc(C(F)(F)F)cc2Cl)cc1 (configuration not stated) | -4% | 15%
FC(F)(F)Oc1ccccc1C(c1nnnn1Cc1ccccc1)N1CCN(C/C=C/c2ccccc2)CC1 (configuration not stated) | 9% | -7%
CNCC(O)c1cccc(OC(=O)c2ccccc2C)c1 (configuration not stated) | -21% | -19%
O=c1cc(NC2CCCCCC2)[nH]c(=O)[nH]1 | . | -2%
CCCCn1c(=S)[nH]c2c(=O)n(C)c(=O)n(C)c21 | -13% | -1%
Cc1ccccc1C(=O)NC1CCN(CC(=O)N2CCCCC2C)CC1 (configuration not stated) | 3% | -3%
COc1ccc(NC(=O)CSC(C)c2nc3ccccc3c(=O)[nH]2)cc1 (configuration not stated) | -11% | -6%
CCOC(=O)c1c(C)n(CC(O)CN(C)C)c2cc(Br)c(OC)cc12 (configuration not stated) | i | -20%
CC(C)(C)c1nnc(NC(=O)NS(=O)(=O)c2ccccc2)s1 | -19% | -17%
COc1cc(C)ccc1S(=O)(=O)NC1CC(C)(C)NC(C)(C)C1 | i | -8%
CCOc1ccc2nc(-c3ccc(OC)c(OC)c3)cc(C(=O)O)c2c1 | -14% | -10%
Nc1cccc2c(=O)[nH][nH]c(=O)c12 | i | -5%

Rewritten as a markdown table: 3 of the compounds above
| mol | VACV mCherry inh | VACV Venus inh |
| --- | --- | --- |
| O=c1cc(NC2CCCCCC2)[nH]c(=O)[nH]1 | . | -2% |
| CCCCn1c(=S)[nH]c2c(=O)n(C)c(=O)n(C)c21 | -13% | -1% |
| Cc1ccccc1C(=O)NC1CCN(CC(=O)N2CCCCC2C)CC1 (configuration not stated) | 3% | -3% |

Next entries follow.
SMILES | VACV mCherry inh | VACV Venus inh
O=C(/C(=N\Nc1ccc([N+](=O)[O-])cc1)Sc1nnnn1-c1ccccc1)c1ccccc1 | ? | ?
CC(Sc1n[nH]c(=O)n1Cc1ccccc1)C(=O)NCC1CCCO1 (configuration not stated) | i | -2%
Cc1cc(C(N)=O)c2ccccc2n1 | -9% | 0%
Fc1ccc(-n2ncc3c(Nc4cccc(Cl)c4)ncnc32)cc1 | -16% | -14%
CC(=NNS(=O)(=O)c1ccc([N+](=O)[O-])cc1)c1ccc(C)cc1 | -7% | 3%
COc1cc2c3nnc(-c4ccc(F)cc4)c-3cn(Cc3ccccc3)c2cc1OC | ? | ?
Cc1cccc(OCCCCCN2CCOCC2)c1 | -11% | -1%
Clc1ccc(CCNC(c2nnc(-c3ccccc3)o2)c2ccccc2Cl)cc1 (configuration not stated) | -13% | -14%
CC(C)Oc1ccc(S(=O)(=O)N2CCOCC2)cc1NC(=O)CSc1nnc(C2CC2)n1C | i | -1%
CCOc1ccc(-c2ncnn2-c2sc3c(c2C#N)CCCCC3)cc1 | 0% | 15%
COc1ccc(CNC(=O)COC(=O)c2n[nH]c3ccccc23)cc1 | . | -27%
O=C(C1=C[C@H](c2ccc(C(F)(F)F)cc2)C[C@H](OCCCCO)O1)N1CCOCC1 | -12% | -10%
Fc1ccc(N2Cc3ccsc3C=N2)cc1 | -14% | -10%
COc1ccc(C(=O)NNC(=O)Cc2ccc([N+](=O)[O-])cc2)cc1 | -10% | -12%
O=C(NCc1ccccc1)c1nncc(-c2ccccc2)n1 | i | -13%
COc1ccc(Cn2c(C(=O)O)c(CNCc3cccc(OC)c3)c3ccc(C)cc32)cc1 | -24% | ?
Cc1ccc(NC(=O)C2CC(=O)N(C(C)C)C2)cc1Cl (configuration not stated) | -3% | -6%
COc1ccc(/C=N/NC(=O)C2C3CCCCC32)cc1OC (configuration not stated) | -17% | -1%
CC(C)NC(=O)c1nn(C)c2ccccc12 | -9% | -11%
CCOC(=O)c1ccc(NC(=O)Cn2nnc(-c3ccccc3C)n2)cc1 | -18% | -13%
O=S(=O)(CCN1CCN(c2ccccn2)CC1)c1ccc(F)cc1 | ? | ?

Compound activity deposited in PubChem by National Center for Advancing Translational Sciences (NCATS).
